Compound activity: PubChem, several laboratories
CBX7 inh – CBX7 chromodomain binding inhibitors, primary screen, biochemical, AlphaScreen; Chromobox protein homolog 7 (Homo sapiens), O95931; 66,000 tested, 1.1% active; AID 1224903, 2016; AlphaScreen His6-CBX7 / biotin-H3K27me3 peptide binding; active compounds read low; normalised signal (fraction of DMSO) (test concentration not listed); in the data active = normalised signal below about 0.5;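 note: 100 nL library stock added to about 20 µL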
Target sequence (O95931 whole entry, looked up): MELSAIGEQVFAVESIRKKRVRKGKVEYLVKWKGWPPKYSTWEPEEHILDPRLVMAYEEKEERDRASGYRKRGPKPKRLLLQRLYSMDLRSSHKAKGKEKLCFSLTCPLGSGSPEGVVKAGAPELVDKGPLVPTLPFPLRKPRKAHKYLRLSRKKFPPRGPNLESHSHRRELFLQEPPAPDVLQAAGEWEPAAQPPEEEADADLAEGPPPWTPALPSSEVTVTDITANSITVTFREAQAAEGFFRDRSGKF
CBX7 inh z-score – also measured in CBX7 inh; calls as there; z-score; measured here: z-score of CBX7 signal; some inactives read as strong as hits; reference of the scale not given here;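 same signal on another scale; lower means less binding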
* = called active by the depositor. A portion of the library, so the mix of outcomes need not match the whole.

Order of results – CBX7 inh | CBX7 inh z-score
COC(=O)c1c(C)n(CCOc2ccccc2OC)c2c1cc(O)c1ccccc12
 : 1.09 | 1.02
CCCCNS(=O)(=O)c1ccc2nc(-c3cccnc3)cc(C(=O)NCCOC)c2c1
 : 0.938 | -1.47
CC(C)c1ccc(NC(=O)C2CCN(S(=O)(=O)c3ccc4c(c3)CCC(=O)N4)CC2)cc1
 : 0.998 | -0.041
Cc1ccc(C(=O)CC(C(=O)O)N2CCCC2)cc1 (configuration not stated)
 : 1.19 | 1.39
CCn1c(=O)cc(OCC(=O)Nc2ccc(OC)cc2OC)c2ccccc21
 : 1.05 | 0.886
CCOc1ccc(-c2nc(SCC(=O)Nc3ccc4c(c3)OCCO4)c(-c3ccc(F)cc3)[nH]2)cc1
 : 0.851 | -0.624
CNC(=O)c1ccc2c(c1)N=C(C)c1cc(Cl)ccc1S2
 : 1.01 | 0.147
CCC1CCCCN1C(=O)c1cc2n(n1)C(C(F)(F)F)CC(c1ccc(Cl)cc1)N2 (configuration not stated)
 : 0.933 | -1.3
O=S(=O)(Nc1cnn(Cc2ccc(F)cc2)c1)c1ccc(F)cc1
 : 1.02 | 0.419
COc1ccccc1C(=O)NCc1nc2ccccc2n1Cc1cc(C)ccc1C
 : 0.904 | -1.11
O=C(NCCC1=CCCCC1)c1ccc2c(=O)n3c(nc2c1)CCCCC3
 : 0.946 | -1.17
CCN(CC)S(=O)(=O)c1ccc2oc(C(=O)NCc3ccc(F)cc3)c(C)c2c1
 : 0.88 | -1.21
CN(C)CC(C)(C)CNS(=O)(=O)c1cccc2nsnc12
 : 1.05 | 1.45
O=C(NCCN1CCOCC1)c1cc(-c2ccc(Br)s2)nc2ccccc12
 : 1.38 | 3.19
COc1ccc(Nc2cc(C(=O)N3CCN(c4ccccn4)CC3)c3ccccc3n2)cc1
 : 0.847 | -0.153
CCCC(=O)NC(c1ccc(OC)c(OC)c1)c1cc(Cl)c2cccnc2c1O (configuration not stated)
 : 0.414* | -2.06*
CCOc1ccc(NC(=O)CC2C(=O)N(c3ccccc3)C(=O)N2C(C)C)cc1 (configuration not stated)
 : 0.998 | -0.0912
COc1ccc(NC(=O)CSc2nc3cc(C)c(C)cc3[nH]2)cc1
 : 1 | 0.0401
Cc1nc2ncnn2c(C)c1CCC(=O)Nc1ccccc1
 : 1.14 | 1.56
CCCCN(CCCC)S(=O)(=O)c1ccc(C(=O)Nc2nnc(-c3ccccc3Cl)o2)cc1
 : 1.01 | 0.0259
CCOC(=O)N1CCN(c2c(N3CCCC(C)C3)c(=O)c2=O)CC1 (configuration not stated)
 : 0.967 | -0.924
COc1ccc(NC(=O)Cn2c(SCc3ccc(F)cc3)nc3ccncc32)cc1OC
 : 0.917 | -3.95
Cc1nc2ncnn2c(C)c1CCC(=O)Nc1ccc(F)cc1F
 : 1.12 | 2.42
COc1ccc(CNC(=O)C2CCCN(S(=O)(=O)c3ccc(Br)s3)C2)cc1 (configuration not stated)
 : 1.16 | 1.69
Cc1ccc(S(=O)(=O)Nc2ccccc2CNc2ccccc2C)cc1
 : 0.957 | -1.14
COc1ccc(OC)c(Nc2cc(C(=O)NCCCN3CCOCC3)c3ccccc3n2)c1
 : 0.856 | -2.26
CCc1nnc(NC(=O)CCCOc2ccc(C(C)(C)C)cc2)s1
 : 1.1 | 0.954
O=C(NC(C(=O)Nc1cccc(Cl)c1)c1ccccc1)c1ccccc1F (configuration not stated)
 : 0.987 | -0.176
Cc1ccc(Nc2nc3nonc3nc2Nc2ccccc2F)cc1
 : 0.949 | -0.955
COc1ccc(-c2nc(-c3ccc(Cl)cc3)no2)cc1
 : 1.08 | 2.96
CCOC(=O)C1CCCN(c2c(N3CCc4ccccc4C3)c(=O)c2=O)C1 (configuration not stated)
 : 0.992 | -0.188
O=C(NC1CCCC1)c1nn2c(C(F)(F)F)cc(-c3ccco3)nc2c1Br
 : 0.993 | -0.191
O=C1c2ccccc2C(=O)N1c1ncc(Cc2cccc(Cl)c2Cl)s1
 : 1 | 0.0406
Cc1c(Cl)cccc1NC(=O)c1oc2ccc(S(=O)(=O)N3CCOCC3)cc2c1C
 : 1.13 | 1.79
COc1ccc(Cl)cc1N(C)C(=O)CCc1nc(-c2ccc(C)cc2)no1
 : 1.02 | 0.882
CCSc1nnc(NC(=O)CSc2nnc(Cc3cccn3C)n2-c2ccc(F)cc2)s1
 : 0.936 | -1.53
Cc1ccc2cc(NC(=O)COc3ccc(-n4cnnn4)cc3)ccc2n1
 : 0.795 | -4.36
O=C(c1ccc2c(c1)OCO2)c1cn(Cc2ccccc2)c2ccccc2c1=O
 : 0.735 | -0.934
Cc1cccc(NC(=O)C2CCN(S(=O)(=O)c3cccc4cccnc34)CC2)c1
 : 0.929 | -0.308
Cc1noc(C)c1S(=O)(=O)N1CCCC(C(=O)Nc2cccnc2)C1 (configuration not stated)
 : 1.13 | 2.06
Cc1nc2c(C(=O)N3CCCC3)cnn2c(C)c1Cc1ccccc1
 : 0.994 | -0.17
CC(C)(C)c1ccc(-c2nnc3sc(-c4ccncc4)nn23)cc1
 : 0.941 | -1.73
COc1ccc(CCNC(=O)CCCn2c(=O)[nH]c3ccsc3c2=O)cc1OC
 : 0.993 | -0.15
CCc1ccc(Nc2nc(C)cc(C)c2C(N)=O)cc1
 : 1.1 | 0.939
O=C(c1cccc(NC2=NC3CS(=O)(=O)CC3S2)c1)N1CCN(C2CCCCC2)CC1 (configuration not stated)
 : 1.09 | 1.03
N#Cc1nc(-c2ccc(F)cc2)oc1NCc1cccc2c1OCO2
 : 1.38 | 4.21
Cc1nc2ccc(S(=O)(=O)NC(CC(C)C)C(=O)N3CCCC(C)C3)cc2s1 (configuration not stated)
 : 0.994 | -0.231
CCCCc1ccc(-c2ccc(Br)cc2O)nc1
 : 1.02 | 0.283
COc1nc(-c2ccccc2)c2cc(C)ccc2n1
 : 1 | 0.0069
COc1ccccc1-c1csc(NC(=O)c2cc(-c3ccccc3)nc3ccccc23)n1
 : 0.875 | -2.28
O=C(CN1C(=O)CSc2ccc(S(=O)(=O)N3CCCC3)cc21)N1CCCC1
 : 1 | 0.00306
O=C(NC1CCCC1)C(c1ccccc1)N(Cc1ccccc1)c1ccccc1 (configuration not stated)
 : 1.05 | 0.468
Brc1ccc(OCc2ccccn2)c(C2NCCc3c2[nH]c2ccccc32)c1 (configuration not stated)
 : 0.844 | -3.8
CCOC(=O)c1nnn(-c2nonc2N)c1-c1ccncc1
 : 0.974 | -0.252
COc1cccc(-c2nnc(SCC(=O)N3CCOCC3)o2)c1
 : 1.04 | 1.63
COc1cc(Nc2cc(C)nc3ncnn23)cc(OC)c1
 : 0.806 | -1.98
COc1ccc(C)cc1-n1cnc2cc(C(=O)NCC(OC)OC)ccc21
 : 0.888 | -1.33
Cc1[nH]c2ccc(OC(F)(F)F)cc2c1CCNS(=O)(=O)c1ccc(C(C)C)cc1
 : 0.913 | -1.89
COCCNC(=O)c1sc2nc(-c3ccccc3)cn2c1C
 : 1.04 | 1.29
CCN1C(=O)c2ccccc2S(=O)c2ccc(C(=O)N3CCCCC3)cc21 (configuration not stated)
 : 0.954 | -1.1

Looked up one by one from above (2):
Order of results – CBX7 inh | CBX7 inh z-score
O=C(c1ccc2c(c1)OCO2)c1cn(Cc2ccccc2)c2ccccc2c1=O
 : 0.735 | -0.934
COc1nc(-c2ccccc2)c2cc(C)ccc2n1
 : 1 | 0.0069

Additional structures:
compound,CBX7 inh,CBX7 inh z-score
O=C(COc1nsnc1N1CCOCC1)Nc1ccc2c(c1)OCCO2,1.42,4.02
CCCC(=O)Nc1sc2c(c1C(=O)Nc1ccccc1)CCC2,0.973,-0.532
COc1cccc(-c2cc(C(=O)Nc3c(C)nn(Cc4ccc(C)cc4)c3C)no2)c1,0.874,-0.735
CC(C)(O)C#Cc1ccc(C(=O)NCC(c2ccccc2)c2ccccc2)cc1,1.06,0.828
COc1cccc(-c2nc3sc4c(c3c(=O)n2CC(=O)Nc2ccccc2Cl)CCCC4)c1,1.06,1.19
Cc1cccc(NS(=O)(=O)c2c(C)noc2C)c1C,1.06,2.6
CN1CCc2c(n(CC(O)CN3CCOCC3)c3ccccc23)C1=O (configuration not stated),1.15,3.09
Cc1ccc(CCNC(=O)Cn2nc(-c3ccc(Cl)cc3)ccc2=O)cc1,0.993,-0.302
Cc1ccc(-c2nnc(Nc3cccc(Br)c3)c3ccccc23)cc1S(=O)(=O)NCCO,0.719,-5.28
Cc1ccc(NC(=O)c2ccc(F)c(S(=O)(=O)N3CCOCC3)c2)cc1F,1.02,0.261
COc1ccc2nc(Nc3nc(CSc4nnc(C)s4)cc(=O)[nH]3)nc(C)c2c1,1.04,1.39
COc1ccc(-n2c(-c3cccc(F)c3)nc3c(cnn3-c3ccc(C)cc3)c2=O)cc1,0.867,-2.65
O=C(CC1C(=O)N(c2ccccc2)C(=O)N1Cc1ccc2c(c1)OCO2)Nc1ccccc1 (configuration not stated),1.04,1.53
Cc1ccc(C)c(CSc2nc3ccncc3n2CC(=O)Nc2cccc(Cl)c2C)c1,1.06,2.74
CC1CCN(C(C(=O)NC2CCCCC2)c2ccc(Cl)cc2)CC1 (configuration not stated),1.08,3.53
COCCNC(=O)c1ccc2c(c1)ncn2-c1ccc(F)cc1F,1.11,2.16
COc1ccc(OC)c(S(=O)(=O)NCCc2c(C)[nH]c3ccc(Br)cc23)c1,0.608,-0.39
CC(C(=O)NCc1ccccn1)N1C(=O)COc2ccc(Cl)cc21 (configuration not stated),0.825,-0.175
CCOc1ccc(NC(=O)CCC(=O)Nc2ccc3nc(N4CCN(C)CC4)cc(C)c3c2)cc1,1,0.0478
Cc1nnc(NC(=O)CSc2ncn[nH]2)s1,0.91,-0.989
COc1ccc(-c2cn3c(C)c(C(=O)Nc4ccc(F)cc4)sc3n2)cc1,0.906,-1.8
COc1cc(-c2nc(-c3ccccc3)c(-c3ccc(Br)cc3)[nH]2)cc2c1OCO2,0.891,-3.79
C=CCn1c(C(Cc2ccccc2)NC(=O)C(C)(C)C)nc2ccccc21 (configuration not stated),1.06,0.429
COc1ccccc1C(=O)N1CC(=O)Nc2ccc(Br)cc2C1c1ccc(F)cc1 (configuration not stated),1.13,2.75
CC(C)CCn1c(COc2ccc(Cl)cc2Cl)nc2ccccc21,1.05,0.763

Two of these compounds in another layout.
CC(C(=O)NCc1ccccn1)N1C(=O)COc2ccc(Cl)cc21 (configuration not stated)
- CBX7 inh: 0.825
- CBX7 inh z-score: -0.175
CCOc1ccc(NC(=O)CCC(=O)Nc2ccc3nc(N4CCN(C)CC4)cc(C)c3c2)cc1
- CBX7 inh: 1
- CBX7 inh z-score: 0.0478

Continuation:
compound,CBX7 inh,CBX7 inh z-score
CCc1ccc(OCC(=O)N(Cc2nc(-c3ccc(C)cc3)no2)C(C)C)cc1,0.792,-2.06
CCN(CC)CCNS(=O)(=O)c1cccc2nsnc12,1.05,1.36
CCOC(=O)C1CCN(c2cc(C)nc3c(-c4ccc(OC)c(OC)c4)c(C)nn23)CC1,1.01,0.149
CCC(=O)N1CCc2cc(S(=O)(=O)N3CCCC(C)C3)ccc21 (configuration not stated),0.85,-1.28
Cc1nnc(Sc2cc(C(=O)NC3CCCCC3C)c3ccccc3n2)s1 (configuration not stated),0.797,-5.29
CCCCN(CC)S(=O)(=O)c1ccc2oc(C(=O)O)c(C)c2c1,0.841,-3.15
O=C(O)c1ccc(S(=O)(=O)c2ccc3c(c2)C(=O)N(CC2CCCO2)C3=O)cc1 (configuration not stated),1.01,0.168
CCN(CC)CCCNC(=O)c1cn(CC(C)C)c(=O)c2cc(OC)c(OC)cc12,1.17,1.91
Cc1ccc(-n2nc3ccc(NC(=O)C(C)C)cc3n2)cc1Cl,0.96,-0.436
Cc1ccc(CCNC(=O)c2ccc3c(c2)N(Cc2ccccc2)CCS3)cc1,0.919,-0.108
Clc1ccccc1OCc1nc(-c2cccnc2)no1,0.971,-0.0338
Cc1ccc(S(=O)(=O)Nc2ccc(Br)cc2C(=O)c2ccccc2)cc1,1.04,0.066
Cc1cc(C(=O)Nc2c(C)nn(Cc3ccc(Cl)cc3)c2C)no1,0.986,-0.404
CC1(C)CC(=O)c2cc(C(=O)Nc3ccc(Cl)cn3)c(=O)n(-c3ccccc3)c2C1,0.996,-0.0157
CCCC(=O)NC(C)c1nc2ccccc2n1CC (configuration not stated),1.23,2.34
COc1cc2c(cc1OC)C(CC1CCN(C(C)=O)CC1)CC2 (configuration not stated),0.893,-2.13
COc1ccccc1C(=O)Nc1ccccc1-c1nc2ccccc2[nH]1,0.954,-0.506
Cc1ccc2nc(-c3ccc(Cl)cc3)c(-c3ccc(Cl)cc3)nc2c1,1.51,3.38
Cc1nc2c(-c3ccc(F)cc3)c(C)nn2c(C)c1CCC(=O)NC(C)c1ccc2c(c1)OCCO2 (configuration not stated),1.09,0.579
CC(C)(C)c1ccc(OCc2nc(-c3ccncc3)no2)cc1,0.881,-2.06
Cc1ccn2c(NC(=O)CCc3ccccc3)c(-c3cccs3)nc2c1,1.09,0.156

Full records from above:
Entry for CCN(CC)CCCNC(=O)c1cn(CC(C)C)c(=O)c2cc(OC)c(OC)cc12 → CBX7 inh = 1.17; CBX7 inh z-score = 1.91
Entry for COc1ccccc1C(=O)Nc1ccccc1-c1nc2ccccc2[nH]1 → CBX7 inh = 0.954; CBX7 inh z-score = -0.506
Entry for CCC(=O)N1CCc2cc(S(=O)(=O)N3CCCC(C)C3)ccc21 (configuration not stated) → CBX7 inh = 0.85; CBX7 inh z-score = -1.28
